Ba CapD inh: CapD enzyme inhibition; purified CapD enzyme, fluorescence intensity read-out; hits give low values; some hits fall short of the stated cut; 140,000 compounds, 0.23% hits; z-score (test concentration not listed);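 active means z-score under -4 in either of two replicates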;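 further: stock transfer was 100 nL into about 40 µL; score is relative to mean and spread of the plate; one replicate is shown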
AID504770: growth inhibitors of E. coli YBA685 in a screen for V. cholerae RctB (chromosome II replication) inhibitors. E. coli YBA685 rctB-dependent plasmid, OD600 growth, 3 h; hits give low values. z-score (no concentration beside the values). 130,000 compounds, 0.27% hits;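 active means z-score under -2 on both plates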;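 further: wells of about 30 µL received 100 nL stock; score is relative to mean and SD of the test wells; the first replicate is given; strong numbers were not always called active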
Active calls of the source: *; / = not tested or not shown. These rows are one share of the data (hit frequency here may not be typical).

The opening 4 entries as a preview:
Molecule | AID504770 | Ba CapD inh
Clc1ccccc1-c1csc(NCC2CCCO2)n1 (centres undefined) | 1.5 | 0.62
CC(C)CNc1ncnc2c1oc1ccccc12 | -1 | /
COc1ccccc1Cn1c(=O)oc2ccc(C)cc21 | 0.85 | -0.44
COc1ccc(CCNC(=O)c2ccc(Cl)cc2NC(=O)C2=C(C)OCCS2)cc1OC | 1.4 | 0.14

The whole of this part (from the top)
Molecule | AID504770 | Ba CapD inh
Clc1ccccc1-c1csc(NCC2CCCO2)n1 (centres undefined) | 1.5 | 0.62
CC(C)CNc1ncnc2c1oc1ccccc12 | -1 | /
COc1ccccc1Cn1c(=O)oc2ccc(C)cc21 | 0.85 | -0.44
COc1ccc(CCNC(=O)c2ccc(Cl)cc2NC(=O)C2=C(C)OCCS2)cc1OC | 1.4 | 0.14
O=C(C1CCN(S(=O)(=O)c2cc(C(F)(F)F)ccc2Cl)CC1)N1CCN(C(=O)C2CCCO2)CC1 (centres undefined) | 2.2 | /
Fc1ccc(-c2nc3ccc(F)cc3nc2-c2ccc(F)cc2)cc1 | / | 1.6
N=c1sc2ccccc2n1CC(O)c1ccc(Cl)c(Cl)c1 (centres undefined) | -0.6 | 0.12
CC(Oc1ccc(F)cc1)C(=O)Oc1ccc(Cl)cc1 (centres undefined) | 0.35 | 0.81
CC(N)C(=O)OC(C)(C)Cc1ccc(Cl)cc1 (centres undefined) | 0.1 | /
O=C1c2ccccc2C(=O)N1CC(=O)N1CCc2ccccc21 | -1.1 | 0.56
O=C1/C(=C/c2ccc(O)cc2)N=C(c2ccccc2)N1c1nc2cc(Cl)c(F)cc2s1 | 0.55 | 0.24
O=C(COc1ccccc1C(=O)O)Nc1ccc(Br)cc1 | -0.25 | 0.36
O=C(/C=C/c1ccc(Br)o1)N(Cc1nc2ccccc2c(=O)[nH]1)CC1CCCO1 (centres undefined) | 1.5 | /
CN1CCN(c2ccc(CNC(=O)c3ccc4c(c3)OCCO4)cc2)CC1 | 0.55 | 0.98
O=c1ccc2ccc(OCc3ccc(F)cc3)cc2o1 | 0.15 | 6.8
O=S(=O)(Nc1ccccc1N1CCOCC1)c1ccc(-c2ccccn2)s1 | -0.05 | -0.27
FC(F)(F)c1ccc(-c2nc(-c3ccccc3)ncc2-c2ccncc2)cn1 | / | -0.13
O=S(=O)(c1ccc(N=Cc2ccncc2)cc1)c1ccc(N=Cc2ccncc2)cc1 | -0.2 | 1.1
CCN(C(=O)c1cc2c(-c3ccc(Cl)cc3)nn(C)c2s1)c1cccc(Cl)c1 | -0.2 | 0
CC(C)(COC(=O)c1ccc(Br)cc1)N=C1NS(=O)(=O)c2ccccc21 | / | 0.24
CC(C)CCNC(=O)Oc1ccccc1 | -0.95 | 0.7
COc1ccc(-c2cc(C(F)(F)F)n3nc(C(=O)N4CCSCC4)c(Cl)c3n2)cc1OC | / | -0.39
COc1ccc(/C=C2\SC(=S)N(CCC(=O)Nc3ccc(C)cc3)C2=O)cc1OC | 0.2 | 0.62
COc1ccc(C2(O)CN(c3ccc(Br)cc3)C3=[N+]2CCCC3)cc1 (centres undefined) | / | 0.72
Oc1ccccc1C=Nc1ccc(OC(F)(F)F)cc1 | -1.3 | -0.075
CC12CC3CC(C)(C1)CC(CO)(C3)C2 | -0.6 | /
COc1cccc(-c2nc3ccccc3s2)c1 | -0.15 | 7.3
O=S1(=O)CCC(NNC(=S)Nc2ccccc2)C1 (centres undefined) | -0.15 | /
COC(=O)c1cccc(NC(=O)COC(=O)CSc2nc(C)cc(C)n2)c1 | -1.1 | -0.39
CCN(C(=O)COc1cc(=O)n(CC)c2ccccc12)c1cccc(Cl)c1 | -1.3 | -0.06

One compound at a time, from the list above:
O=S(=O)(Nc1ccccc1N1CCOCC1)c1ccc(-c2ccccn2)s1 is listed as AID504770 = -0.05; Ba CapD inh = -0.27
CCN(C(=O)c1cc2c(-c3ccc(Cl)cc3)nn(C)c2s1)c1cccc(Cl)c1 is listed as AID504770 = -0.2; Ba CapD inh = 0

(more compounds)
Molecule | AID504770 | Ba CapD inh
Cc1cc(C)c(S(=O)(=O)N2CCN(Cc3ccc4c(c3)OCO4)CC2)c(C)c1 | -0.35 | -0.23
CC(C)(C)NC(=O)c1ccccc1SCc1ccc(F)cc1 | 2.1 | -0.31
COC(=O)c1c(C)nn(C)c1-c1snnc1C | -0.55 | 0.51
Cc1c(C)n(C(=O)CSc2ncn[nH]2)c2ccccc12 | -0.45 | -0.58
O=C(c1cc2ccccc2oc1=O)N1CCOCC1 | -1 | 1.1
CCOc1ccc(C2=NN3C(C2)c2cccc(OC)c2OC3c2cccc(Cl)c2)cc1 (centres undefined) | / | -1.1
CCOC(=O)c1sc(SC)c2c1CCc1conc1-2 | -1.4 | 2.2
CCOC(=O)N1CCC(NC(=O)Cn2ncc3c4ccccc4n(C)c3c2=O)CC1 | -0.7 | -0.14
COC(=O)C(Cc1ccc(O)cc1)NC(=O)c1ccc(OC)c(OC)c1 (centres undefined) | -0.55 | 0.43
Cc1cc(NC(=O)c2cc(C)oc2C)on1 | -1.1 | 0.16
CC(=O)N1C(=N)S/C(=C/c2cc3ccccc3nc2Sc2ccccc2)C1=O | 0.05 | 1.5
COc1ccc2nc(N3CCCC3)sc2c1 | -0.45 | -0.3
Nc1ccc(S(=O)(=O)CCSS(=O)(=O)c2ccc(N)cc2)cc1 | -0.1 | /
COCc1cc(C)nc2sc(C(=O)N(C)c3ccccc3)c(-n3cccc3)c12 | 0.05 | /
O=C(COc1ccccc1O)NCC1CCCO1 (centres undefined) | -1 | -0.1
CCCc1nnc(NC(=O)CSc2nc(-c3cccc(OC)c3)c(C#N)c(=O)[nH]2)s1 | / | -0.035
CCOC(=O)c1c(NC(=O)c2ccc(Cl)cc2)sc(C(=O)Nc2ccc3c(c2)OCO3)c1C | / | -0.48
Oc1ccc(C=NC2c3ccccc3-c3ccccc32)cc1 | -0.4 | -0.31
COc1ccc(C(=O)OCc2cc(-c3ccc(Cl)c(Cl)c3)on2)cc1 | / | -0.32
CCc1c(C)c2cc3c(-c4ccccc4)coc3cc2oc1=O | 0.7 | 11
CC(C)(C)C(=O)N1CCN(C(=O)c2ccc3cc[nH]c3c2)CC1 | / | 0.64
CSc1ncc(C(=O)NCCCN2CCc3ccccc3C2)c(C)n1 | 2.7 | -0.94
Clc1ccc(OCc2nn[nH]n2)cc1 | 0.25 | 0.4
O=c1cc(CSc2nnnn2-c2ccccc2)[nH]c2nc3ccccc3n12 | -0.7 | 0.32
Cc1nnc(C)c2c(C)n(-c3ccccc3N)c(C)c12 | -0.3 | 2.1
O=C(c1cccc(C(F)(F)F)c1)N1CCCCC1 | -0.9 | 0.68
N#C/C(=C\Nc1ccccc1F)c1nc(-c2cc3cc(Br)ccc3oc2=O)cs1 | / | -0.21
CCOC(=O)c1nc(C)n(-c2cc(Cl)cc(Cl)c2)n1 | -0.8 | -0.47
CCCCn1c(CCCNC=O)nc2ccccc21 | -0.8 | -0.42
N#Cc1c(N)nc(SCc2ccccc2F)c(C#N)c1-c1cccs1 | / | 0.18
O=C(O)c1cccc(NC(=S)N/N=C/c2cccc(O)c2)c1 | -0.1 | -1.1
Cc1cccc(N(CCOC(=O)CN2C(=O)c3ccccc3C2=O)C2=NS(=O)(=O)c3ccccc32)c1 | / | 0.17
CCOC(=O)CC1=C(C#N)C(c2cccnc2)C(C(=O)OCC)=C(N)O1 (centres undefined) | -0.65 | 0.15
CN1CCC(NC2CCN(C)CC2)CC1 | / | -0.52
CC1C(c2ccccc2)OCCN1C(=O)CCC(=O)N1CCOC(c2ccccc2)C1C (centres undefined) | / | 0.41
CSc1cc(=O)c2ccccc2s1 | -0.3 | -2.7
Cc1cc(=O)oc2c3c(ccc12)O/C(=C/c1cccc(O)c1)C3=O | / | 0.015
CN1C(=O)C(=Cc2ccc(-c3cccc(Cl)c3)o2)C(=O)N(C)C1=S | 0.85 | 1
Cc1ccc(CNC(=O)c2ccc(N3CCSc4ncccc43)s2)o1 | -0.25 | 13
CCCNC(=O)N1CCC(C(=O)c2cccc(F)c2)CC1 | 0.9 | /
CC(=O)N1N=C(c2ccc(C)cc2)CC1c1cn(-c2ccccc2)nc1-c1ccccc1 (centres undefined) | / | 0.84
CC(C)NC(=O)C1CCCCC1C(=O)O (centres undefined) | -0.8 | /
Cc1cc(N2CCN(c3cccc(C)c3C)CC2)nc(-c2ccccc2)n1 | 0.9 | /
COC(=O)NCc1cc(OC)c(OC)c(OC)c1 | -1 | -1.1
Cc1csc(C(C#N)C(=O)CSc2ccc3c(c2)OCCO3)n1 (centres undefined) | -0.05 | /
CC1(C)COP(=S)(C(Nc2ccccc2)c2ccccc2)OC1 (centres undefined) | / | 0.5
CC12CCC(=O)N1C(C(=O)Nc1nccs1)CS2 (centres undefined) | -0.8 | /
CCCCCCCc1c(O)nc(SCCN2CCOCC2)n(-c2ccccc2)c1=O | 1.1 | 0
CCOCC(=O)N1CCc2ccccc21 | 2.5 | 0.015
Cc1nnc(SCC(=O)NCCN2CCOCC2)c2nn(-c3ccccc3)c(C)c12 | 0.65 | -1.6
CC1CCCN(C(=O)Cc2cn(Cc3cccc(Cl)c3)c3ccccc23)C1 (centres undefined) | / | -0.74
CC(=O)c1cc([N+](=O)[O-])ccc1Sc1ccc(Cl)cc1 | / | -1
N#Cc1ccc(-c2cccnc2)nc1SCC(=O)c1ccc(Br)cc1 | / | -0.43
CN(C)CCCN1C(=O)C(O)=C(C(=O)c2cccs2)C1c1ccco1 (centres undefined) | 0.4 | -0.46
Cc1nc(-c2c(C(=O)NNC(=O)OCCCCc3ccccc3)noc2C)cs1 | / | -0.44
O=C(NC(c1ccccc1)c1nnc(-c2ccccc2)o1)c1cccc(Cl)c1 (centres undefined) | 1.4 | 0.53
COC(=O)c1cc(NC(=O)CSCCc2ccccn2)cc(C(=O)OC)c1 | -0.65 | 0.79
O=C(CC1CS(=O)(=O)CC1CC(=O)NCc1ccccc1)NCc1ccccc1 (centres undefined) | -0.2 | -0.8
COC(=O)c1sc(OC)cc1OC(=O)c1cccs1 | -0.8 | -0.76
CCOc1ccc(-n2c(CNC(=O)c3cc(OC)c(OC)c(OC)c3)nnc2SCC(=O)Nc2nccs2)cc1 | / | -0.025

New compounds follow:
Molecule | AID504770 | Ba CapD inh
Cc1onc(-c2ccccc2)c1NC(=O)N(Cc1ccccc1)C(C)C | -1.9 | 0.1
CN(C)c1ncc2c(=O)n(CC3CCCO3)ccc2n1 (centres undefined) | 0.35 | 0.69
CCOC(=O)c1cc(-c2ccccc2)sc1NC(=S)Nn1cnnc1 | -0.65 | 0.15
Cc1ccc(O)c(NC(=O)c2nn3c(c2Br)NC(c2cccs2)CC3C(F)(F)F)c1 (centres undefined) | / | -0.23
O=C(NCc1ccccc1)C1CCCN1S(=O)(=O)c1cccc2nsnc12 (centres undefined) | -0.05 | 0.005
CC(C)(C)c1ccc(C2Oc3ccccc3C3CC(c4ccc(Br)cc4)=NN32)cc1 (centres undefined) | / | 0.58
COc1ccc(C2=NN3C(C2)c2cc(Br)ccc2OC3c2ccc(C(C)C)cc2)cc1 (centres undefined) | / | -0.4
CCCCCC(=O)N1c2ccccc2NC2=C(C(=O)CC(C)(C)C2)C1c1cc(OC)ccc1OC (centres undefined) | / | 1.3
CNC(=O)OCc1cccc(COC(=O)NC)n1 | -1.5 | 0.24
O=S(=O)(c1ccc(Br)cc1)N1CCCN(S(=O)(=O)c2ccc(Br)cc2)CC1 | / | 0.21
O=C1/C(=C/Nc2ccccc2[N+](=O)[O-])C(c2ccccc2)c2cccc(F)c21 (centres undefined) | / | -0.12
CCOc1ccc(C)cc1-n1nc2ccccc2n1 | 0.4 | 53
O=C(OC(C(=O)c1ccccc1)c1ccccc1)c1ccccn1 (centres undefined) | 0.35 | /
CC(Oc1ccccc1)C(=O)n1c(=O)oc2ccccc21 (centres undefined) | -1.2 | 0.055
Cn1nc(C(F)(F)F)c(-c2ccccc2)c1N | 1.8 | 0.075
COc1ccc(OCC(=O)NCc2nc3ccccc3[nH]2)cc1 | 0.65 | 0.23
CN1c2ccccc2C(C)(C)C12C=Nc1c(cc(N3CCc4ccccc43)c3ccccc13)O2 (centres undefined) | / | -0.31
CC1(C)Cc2ccccc2/C(=C/C(=O)Nc2ccccc2)N1 | -0.2 | -1.1
COCCN1CCC(=O)C(C)C1C (centres undefined) | 0.8 | -0.78
O=C(NNC(=O)c1ccccc1-n1cccc1)c1cccc(C(F)(F)F)c1 | / | 0.065
Clc1ccc(C2CC(c3cccs3)=Nc3ccccc3S2)cc1 (centres undefined) | / | 0.37
c1ccc(CSc2nnnn2-c2ccccc2)cc1 | 0.8 | -0.25
N=c1c2c3c(sc2ncn1CCO)CCCC3 | -0.7 | 0.01
Cc1c(C(=O)N(CC2CCCO2)C2CCS(=O)(=O)C2)oc2ccc(F)cc12 (centres undefined) | -0.3 | /
O=S(=O)(/C=C/c1ccccc1)NCc1ccccc1 | -0.9 | -0.42
CN1CCC(N(C)C(=O)c2cc3ccccc3oc2=O)CC1 | 1.5 | 3.1
O=C(CC(CC(=O)N1CCN(c2ccccn2)CC1)c1ccc(Br)cc1)C1CC1 (centres undefined) | / | 2.1
CC(C)CC(C(N)=O)N1C(=O)c2ccccc2C1=O (centres undefined) | -0.3 | /
Cc1ccc(CS(=O)Cc2ccc(C(=O)NCc3cccnc3)o2)cc1 (centres undefined) | 0.25 | -0.91
C=C(C)c1cccc(C(C)(C)NC(=O)Nc2ccc(N3CCOCC3)cc2)c1 | -0.5 | -0.18

A different layout for 2 compounds above.
Values in the order: AID504770	Ba CapD inh
> CCOC(=O)c1c(NC(=O)c2ccc(Cl)cc2)sc(C(=O)Nc2ccc3c(c2)OCO3)c1C
→ /	-0.48
> Oc1ccc(C=NC2c3ccccc3-c3ccccc32)cc1
→ -0.4	-0.31

Source: PubChem (ICCB-Longwood Screening Facility, Harvard Medical School)
